Sfp inh: Sfp phosphopantetheinyl transferase inhibition; Q9F4F7; Biochemical Sfp PPTase activity, qHTS; Potency, µM, without a hit: max response, negative = inhibition, usual class: inhibitors; 310,000 compounds, 3.5% hits; AID 1490; active means well fitted inhibition curve with a large enough effect; inconclusive means small, poorly fitted or top-dose-only effect, or another doubt; inactive means no such curve, though single readings can be large or run the other way;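 further: the enzyme is Sfp with the accession as filed and its product quenches rhodamine fluorescence; potency means the concentration at half of the fitted maximal effect; 0% = enzyme reaction without inhibitor and -100% = no enzyme wells; top concentration of the series not given in the record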
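Compounds were incubated with enzyme (final 15 nM) for 15 min at room temperature before substrate addition started the reaction. Fluorescence at 525 nm excitation, 598 nm emission was recorded immediately and after 30 minutes.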
Menin MLL FP FL: inhibitors of human menin-MLL interaction, wild-type MLL peptide; Fluorescence polarization, fluorescein-MLL peptide displacement from menin; FP activity change, % at 61.4 µM; 290,000 tested, under 10 active; inconclusive = falling polarisation curve, or a change in total fluorescence; inactive = total fluorescence flat and polarisation flat or rising; no compound was filed as active; the % refers to the polarisation; negative = inhibition;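 further: % of control where 0% means no effect; inhibitors lower the polarisation; unlabelled MLL peptide was the positive control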
TRPML1 inh: human mucolipin-1 channel inhibition | Q9GZU1 | AID 624415 | activity change, negative = inhibition, % (test concentration not listed) | 390,000 compounds, 0.02% hits | TRPML1-inducible cells, Ca2+ dye fluorescence, FDSS; stronger effect = lower value; inhibition of EC80 agonist-evoked calcium signal; in the data active means activity change below about -50%; inconclusive means about -30% to -50%; inactive means above about -30%;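 further: stimulus is agonist 54-4 at its EC80 concentration; on the % scale 0 is the no-effect control and ±100 the full control effect; compound concentration not given in the record; the text of the record puts the active cut at -80%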
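Calcium fluorescence in TRPML1-DL cells induced overnight with Tet: a 110 s read after compound pin addition, then a 110 s antagonist read after challenge with 54-4 at 4 uM final (EC80).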
TRPML1 ag: activates the human TRPML1 channel; activation, % (concentration not given with the values); 410,000 compounds, 0.12% hits; TRPML1-expressing cells, Ca2+ dye fluorescence, FDSS; host cell line not named in the record; reference of the full effect not given here; Q9GZU1; in the data active = activation above about 50%; inconclusive = about 30% to 50%; inactive = below about 30%; further: 0% is about no effect; the text of the record puts the active cut at 80%
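Cells: TRPML1-DL, 1X Tet inducer, ~16 h at 37 degrees C/5% CO2. Dye: ABD Ca8 no-wash + quencher, 45-90 min RT. Read: 10 s baseline, compound add, 110 s agonist phase; 54-4 EC80 (4uM final), 110 s antagonist phase.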
ClpP mod: qHTS Assay for Activators of ClpP; purified B. subtilis ClpP, FRET peptide cleavage, 20 min; 340,000 compounds, 1.9% hits; AID 651965, 2013; Potency, µM (titrated, usually from 57.5 µM), for the others: at the highest dose activity change, negative = active; ATP-dependent Clp protease proteolytic subunit (Bacillus subtilis (strain 168)), P80244; active = well fitted falling curve with a large enough effect; inconclusive = small, poorly fitted or top-dose-only effect; inactive = no such curve, though single readings can be large or run the other way; further: potency means the concentration at half of the fitted maximal effect; the source files actives as falling curves though it sought activators and does not explain the sign; nearly all actives have a fitted effect of over 65% in size; many hits overshoot -100%
Target sequence (P80244 whole entry, looked up): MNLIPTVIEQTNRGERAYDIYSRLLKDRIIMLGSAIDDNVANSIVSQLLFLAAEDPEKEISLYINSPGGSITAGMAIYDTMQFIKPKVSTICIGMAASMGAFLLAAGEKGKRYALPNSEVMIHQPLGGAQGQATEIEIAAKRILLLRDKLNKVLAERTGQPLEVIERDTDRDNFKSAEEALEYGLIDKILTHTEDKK
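FRET quenching reversal measured ClpP activation: 10 microg/mL B. subtilis ClpP at pH 8 with the FRET-FV decapeptide, read at 430 nm after 320 nm excitation. The 20-min minus 0-min signal was scaled between DMSO/no-enzyme wells and ADEP (5.8 microM final).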
TRPV1 PAM: human TRPV1 potentiation; 320,000 compounds, 0.02% hits; TRPV1-expressing cells, Fluo-8 calcium influx, capsaicin EC20 potentiation; host cell line not named in the record; control for the full effect not named in the record; potentiation, % at 8.33 µM; Q8NER1; active means potentiation above 80%; inconclusive means 30% to 80%; inactive means below 30%; further: 0% is about no effect
Target sequence (Q8NER1 whole entry, looked up): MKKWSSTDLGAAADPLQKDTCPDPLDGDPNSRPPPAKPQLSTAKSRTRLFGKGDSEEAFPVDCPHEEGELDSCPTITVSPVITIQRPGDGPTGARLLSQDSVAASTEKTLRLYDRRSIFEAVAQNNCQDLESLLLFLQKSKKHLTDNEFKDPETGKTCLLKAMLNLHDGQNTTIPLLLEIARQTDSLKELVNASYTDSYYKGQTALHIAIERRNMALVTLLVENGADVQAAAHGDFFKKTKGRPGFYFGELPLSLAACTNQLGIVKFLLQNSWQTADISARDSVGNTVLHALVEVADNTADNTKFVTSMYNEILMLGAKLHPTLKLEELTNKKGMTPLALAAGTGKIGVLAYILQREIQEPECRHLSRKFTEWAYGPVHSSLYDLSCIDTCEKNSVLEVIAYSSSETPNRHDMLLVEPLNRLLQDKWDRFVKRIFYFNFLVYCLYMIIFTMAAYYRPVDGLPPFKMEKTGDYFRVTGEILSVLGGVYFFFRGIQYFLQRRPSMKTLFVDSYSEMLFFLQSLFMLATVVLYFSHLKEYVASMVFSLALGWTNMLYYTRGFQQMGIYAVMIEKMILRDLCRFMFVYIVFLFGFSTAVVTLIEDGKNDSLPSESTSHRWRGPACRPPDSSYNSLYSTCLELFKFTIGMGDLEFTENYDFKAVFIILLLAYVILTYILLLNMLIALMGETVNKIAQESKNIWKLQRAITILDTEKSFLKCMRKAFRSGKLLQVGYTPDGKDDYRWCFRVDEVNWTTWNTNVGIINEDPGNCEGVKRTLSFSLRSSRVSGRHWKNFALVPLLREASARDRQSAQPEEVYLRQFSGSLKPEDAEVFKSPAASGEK
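Cells expressing TRPV1 were dye-loaded with Fluo-8 and read kinetically: 10 s baseline, 3 min after compound (agonist portion), then 2 min after EC20 capsaicin (allosteric enhancer portion). Calcium-bound dye fluorescence at 480/520 nm.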
PINK1 expr mod: PINK1 expression modulation. PINK1 immunofluorescence, high-content cytometry, 24 h. Potency, µM (titrated, usually from 76.6 µM), for inactives: at the highest dose activation (PINK1 increase), most hits filed as activators. 410,000 compounds, 0.2% hits. AID 624263; active = well fitted activation curve with a large enough effect; inconclusive = small, poorly fitted or top-dose-only effect; inactive = flat fitted curve, though single readings scatter; cell line not stated here;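 further: potency means the concentration at half of the fitted maximal effect; % of control where 0% means no effect; nearly all actives have a fitted effect of over 65% in size; a mitochondrial uncoupler was the plate control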
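Stable cell line treated 24 h with compounds at 5 concentrations (CCCP controls), then fixed and immunostained for PINK1 plus nuclear and cell stains; PINK1 immunofluorescence quantified by laser-scanning microplate cytometry.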
Active calls of the source: *; ? = inconclusive; nt = not tested or not shown; & = joins results of further samples; [ ] = another dose, or the depositor's remark.

SMILES	Sfp inh	Menin MLL FP FL	TRPML1 inh	TRPML1 ag	ClpP mod	TRPV1 PAM	PINK1 expr mod
C/C(=N\NC(=O)CCc1ccc(S(=O)(=O)N2CCOCC2)cc1)c1ccc(Br)cc1	1%	0.9	7	-0.7	-1.9%	4	1.5%
Cc1cccc(C2C=C(c3ccc(F)cc3)Nc3nc4ccccc4n32)c1 (configuration not stated)	nt	nt	-20	7.7	-2.1%	nt	2.0%
Cc1cccc(NC(=O)c2cc([N+](=O)[O-])ccc2N2CCN(C)CC2)c1	10%	-4.0	8	1.2	nt	17	-0.9%
O=C(Cc1cccs1)Nc1nnc(SCc2cccc3ccccc23)s1	9%	-2.5	-3	2.0	0.5%	2	13%
O=C(NNC1=NC2(CCCC2)Cc2ccccc21)c1ccncc1	6%	-1.8	1	0.0	nt	2	-0.4%
COC(=O)c1cn(NC(=O)Cc2ccc(Cl)c(Cl)c2)c(=O)c2ccccc12	10%	0.1	-2	-0.7	5.2%	-5	?
CCN(Cc1ccccc1)C(=O)C1CCC(CNc2c(N3CCOCC3)c(=O)c2=O)CC1 (configuration not stated)	-7%	0.2	1	-0.9	1.6%	-4	1.6%
Cc1cc(Cl)ccc1OCC(=O)NNC(=O)c1ccc(=O)[nH]c1	nt	nt	-3	-0.3	-12%	nt	2.0%
Cc1ccc(-c2csc(-c3c[nH]c4ccccc34)n2)c(C)c1	31%	1.6	-2	-1.0	?	5	-2.3%
COc1cccc(C(=O)Oc2ccc3ccc(=O)oc3c2)c1	9%	-1.1	-5	1.9	4.6%	-6	-0.3%
C=CCN1C(=O)c2ccc(C(=O)NCCOc3ccccc3F)cc2C1=O	nt	nt	-1	0.2	3.7%	0	0.9%
CCCCc1c(O)nc2sc3cc(OC)ccc3n2c1=O	11%	2.5	1	-0.5	0.6%	-1	1.6%
COc1c(Cl)cc(C(=O)Nc2cccc(-c3nc4ccccc4[nH]3)c2)cc1Cl	nt	nt	2	1.6	?	nt	-1.3%
CC(=O)N1CCN(CC(O)COc2ccc(S(=O)(=O)N3CCOCC3)cc2)CC1 (configuration not stated)	nt	nt	1	-0.3	0.2%	1	3.5%
C=CCON/C(CCC)=C1\C(=O)CC(C)(C)CC1=NC	9%	3.7	-2	1.5	nt	nt	0.9%
Cc1cc(C)n(CCNS(=O)(=O)c2ccc(Cl)cc2)n1	4%	nt	-5	1.2	-2.5%	23	1.0%
CC(C(=O)Nc1nccs1)N1C(=O)C2CC=CCC2C1=O (configuration not stated)	8%	5.2	-11	1.1	1.9%	-11	-1.2%
O=C(/C=C/c1cccs1)NC1CC1	9%	-2.6	10	3.8	0.9%	1	-1.1%
C=CCN(CC(O)c1cccc([N+](=O)[O-])c1)C(C)CCc1ccccc1 (configuration not stated)	0%	1.1	63	3.3	nt	-10	?
NNC(=O)c1csc(-c2cccc(C(F)(F)F)c2)n1	15%	-0.5	-4	0.0	1.7%	-13	3.0%
Cc1cc(C)n(-c2n[nH]c(C)c2[N+](=O)[O-])n1	27%	-4.4	4	-0.1	nt	6	1.2%
COc1ccccc1C(=O)NCCC(=O)Nc1nc2ccccc2[nH]1	nt	nt	-11	0.0	nt	12	16%
CC(C)(C)NC(=O)COc1ccc(CNn2nnnc2N)cc1	7%	4.5	6	-0.1	-0.2%	-18	-1.9%
COc1cc(OC)c2c(=O)c(-c3ccccc3)coc2c1	?	7.6	nt	nt	nt	nt	-0.3%
O=C(O)COc1ccc(Br)cc1C(c1c(C(=O)O)[nH]c2ccccc12)c1c(C(=O)O)[nH]c2ccccc12	6%	0.8	-1	1.0	-3.4%	0	0.4%
O=C(OCc1nnc(-c2ccccc2)o1)c1cccnc1Cl	4%	2.0	22	3.5	nt	7	-1.3%
Nc1ccccc1C(=O)NCc1ccc(F)cc1	-9%	5.7	-9	0.3	4.7%	-12	-2.2%
CSc1nc2c(c(=O)n1C)SC(C)C2 (configuration not stated)	50µM*	-0.1	-1	-0.5	-5.2%	-16	0.9%
O=C(Nc1ccccc1)c1cc(C2CCCN(C(=O)c3ccc4c(c3)CCO4)C2)on1 (configuration not stated)	nt	nt	33	0.7	-1.1%	nt	-0.8%
CC1(C)C(=O)OC(C(=O)c2ccc(Cl)cc2)C(C)(C)C1=O (configuration not stated)	13%	-1.3	6	-0.3	-0.2%	-11	0.5%
O=C(CSc1nc(=O)n(CCCN2CCOCC2)c2c1CCCC2)Nc1cccc(Cl)c1	nt	nt	17	-0.1	?	3	-0.7%
COc1ccc(S(=O)(=O)/N=C2/NC(=O)/C(=C\c3ccco3)S2)cc1	-21%	?	5	-0.7	-3.2%	10	-2.6%
CCOC(=O)C(=O)/C(=C\N(C)C)c1onc(-c2ccccc2)c1C(=O)OC	14%	1.3	-25	0.4	6.3%	29	1.2%
COCCSc1nnc(NC(=O)CS(=O)(=O)c2ccc(C)cc2)s1	17%	5.8	-2	-0.4	nt	?	1.6%
CCOC(=O)N1CCN(Cc2cccs2)CC1	17%	6.3	42	-0.3	-1.8%	-3	47%[38.3 µM]
CC(C)c1ccc(NC(=O)Cn2nnc(C(=O)NCc3ccc4c(c3)OCO4)c2N)cc1	8%	0.7	0&6	-0.1&0.0	-1.7%&-0.8%	0	0.7%&3.5%
CN(C)CCCN(C(=O)CCc1ccccc1)c1nc2ccc(F)cc2s1	-13%	-3.8	6	0.0	0.3%	4	12%
Oc1ccc(C[C@@H](CN2CCCC2CN2C(=S)NC[C@@H]2Cc2ccccc2)N2C[C@H](Cc3ccccc3)N(CC3CCCCCC3)C2=S)cc1 (some centres not stated)	nt	nt	nt	-0.5	0.9%	nt	2.5%
CCCOc1ccc(/C=N/n2nnnc2N)cc1OC	6%	1.6	11	0.0	nt	13	1.4%
CCc1nn(-c2ccccc2)c(=S)c2ccccc12	4%	6.2	-8	2.2	nt	7	1.7%
O=C(c1ccc([N+](=O)[O-])cc1)N1CCSC1c1ccc(Cl)cc1 (configuration not stated)	12%	-0.6	-17	0.7	2.5%	-12	-0.7%
Cc1ccc(OCCNC(=O)CNC(=O)c2ccccc2Cl)cc1	nt	nt	-9	-0.6	1.3%	8	0.6%
Cc1cccc(CC(C)NC(=O)CCc2nnc(CCCCc3ccccc3)o2)n1 (configuration not stated)	18%	0.5	14	-0.4	nt	3	-1.3%
COc1ccc(CC(=O)NNc2ncnc3c2cnn3Cc2ccccc2)cc1OC	?	-0.8	8	-0.5	-0.5%	nt	-1.5%
Cc1ccc(C)c(Nc2cc(C)nc(-c3ccccc3O)n2)c1	9%	-0.6	19	2.6	-13%	-9	?
COc1ccc(CNC(=O)C(C)N2Cc3ccccc3C2=O)cc1 (configuration not stated)	nt	nt	-8	-0.6	2.1%	nt	0.9%
O=C(COc1ccc(F)cc1)NCc1ccc2c(c1)CCN2C(=O)c1ccc(F)cc1	nt	nt	15	2.5	-2.5%	nt	0.8%
CCOc1ccc(NC(=O)Cn2ncc3ccccc32)cc1	7%	-0.1	24	1.6	1.1%	16	-1.4%
CCOC(=O)NC(=O)CSc1nc(C)cc(C)c1C#N	-2%	0.9	22	0.1	16%	-3	-1.2%
Fc1ccccc1NC(=S)Nn1cnnc1	18µM*	nt	-20	-0.3	-2.0%	8	1.8%
CCOC(=O)/C(C#N)=N/Nc1ccc(S(=O)(=O)N2CCc3ccccc32)cc1	14%	nt	-6	3.1	-0.5%	?	16µM*
CS(=O)(=O)N(CC(=O)N/N=C/c1ccc(OCC(=O)N2CCOCC2)cc1)c1ccccc1Cl	5%	1.1	-14	-0.4	1.6%	-3	1.4%
CCC(=O)c1ccccc1OCCN1C(=O)NC(C)(C)C1=O	13%	2.1	4	-0.4	-1.8%	-1	?
O=C(CN1C(=O)CC(c2ccco2)Sc2ccccc21)NC1CCCCC1 (configuration not stated)	-11%	0.8	-15	-0.8	0.2%	-13	-0.5%
C=CCOCC(O)CS(=O)(=O)Cc1ccc(Cl)cc1 (configuration not stated)	12%	1.3	3	0.9	-0.9%	14	-1.0%
CC(NC(=O)CC12CC3CC(CC(C3)C1)C2)C(=O)O (configuration not stated)	14%	-0.9	11	-0.3	-3.1%	-1	?
CCOc1cc(/C=N/O)ccc1OCC(=O)Nc1cccc(C)c1	-19%	7.7	12	0.7	-1.5%	-6	2.6%
COc1ccccc1N=Nc1ccc(N)c(C)c1	1%	-1.1	-15	-0.2	-2.2%	1	5.1%
CCOc1cccc(C(=O)Nc2ccccc2OC(F)F)c1	-6%	1.9	-12	1.4	-2.0%	-5	2.3%
CCOC(=O)c1cccc(NC(=O)C2CCN(S(=O)(=O)c3cccs3)CC2)c1	7%	0.4	-9	5.8	-4.8%	1	-3.2%[38.3 µM]

Compound profiles (already shown). Order of screens: Sfp inh	Menin MLL FP FL	TRPML1 inh	TRPML1 ag	ClpP mod	TRPV1 PAM	PINK1 expr mod
Listed for `CCOc1ccc(NC(=O)Cn2ncc3ccccc32)cc1` = 7%	-0.1	24	1.6	1.1%	16	-1.4%
Listed for `O=C(CN1C(=O)CC(c2ccco2)Sc2ccccc21)NC1CCCCC1` (configuration not stated) = -11%	0.8	-15	-0.8	0.2%	-13	-0.5%
Listed for `C=CCOCC(O)CS(=O)(=O)Cc1ccc(Cl)cc1` (configuration not stated) = 12%	1.3	3	0.9	-0.9%	14	-1.0%

Next part:
SMILES	Sfp inh	Menin MLL FP FL	TRPML1 inh	TRPML1 ag	ClpP mod	TRPV1 PAM	PINK1 expr mod
COc1ccc(-c2nnc(SC(C)C(=O)Nc3c(C)n(C)n(-c4ccccc4)c3=O)o2)cc1 (configuration not stated)	5%	3.8	27	-0.5	-0.4%	5	-1.9%
Cc1ccc(S(=O)(=O)Cc2nc(-c3ccc(C(=O)NCCCOC(C)C)cc3)oc2C)cc1	nt	nt	-10	-0.3	3.9%	nt	0.2%
CCN(c1c(C)n(C)n(-c2ccccc2)c1=O)S(C)(=O)=O	14%	1.3	18	3.6	-3.3%	29	-1.3%
NS(=O)(=O)c1ccc(N/N=C2/CCCc3ccccc32)c([N+](=O)[O-])c1	-6%	-1.6	3	0.4	-12%	0	-0.4%
COc1ccc(CN(C)C(=O)c2ccccc2OCc2c(C)noc2C)c(OC)c1	nt	nt	12	2.6	-0.7%	?	1.0%
